Assay outcomes deposited in PubChem BioAssay by ICCB-Longwood Screening Facility, Harvard Medical School.
GIV Gai3 FP – inhibitors of GIV peptide binding to Galpha-i3, primary screen, biochemical, fluorescence polarization, FITC-GIV GBA peptide, rat Galphai3; 0.42% of 210,000 active; AID 1224905, 2016; 90 min; active compounds read low; scaled: aluminum fluoride 0%, vehicle 100%; percent of control (FP), % (no concentration beside the values); Guanine nucleotide-binding protein G(i) subunit alpha-3 (Rattus norvegicus), P08753;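 active means replicate mean at 85% of control or lower, very high polarization wells dropped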;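 further: wells of about 15 µL received 100 nL stock; the first replicate is given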
Target sequence (P08753 whole entry, looked up): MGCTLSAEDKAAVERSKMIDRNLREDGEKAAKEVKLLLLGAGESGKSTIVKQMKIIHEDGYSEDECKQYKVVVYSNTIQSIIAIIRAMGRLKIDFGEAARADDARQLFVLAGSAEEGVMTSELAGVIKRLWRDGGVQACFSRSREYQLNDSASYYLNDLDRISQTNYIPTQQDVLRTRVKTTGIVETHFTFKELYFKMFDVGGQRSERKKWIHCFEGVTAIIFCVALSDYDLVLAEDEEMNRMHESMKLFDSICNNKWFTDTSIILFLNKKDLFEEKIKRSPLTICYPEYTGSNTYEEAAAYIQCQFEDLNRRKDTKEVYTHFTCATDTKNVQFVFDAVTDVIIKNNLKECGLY
Sa growth 42C – S. aureus growth inhibition at 42 and 30 °C, primary screen, LtaS inhibitor project, RN4220, two temperatures; relative growth, % (test concentration not listed); 0.53% of 170,000 active; OD600, 20 h, 42 °C; active compounds read low;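 active means growth at 42 °C up to 50% and 20 or more points under that at 30 °C, or under 10% at both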;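 further: 300 nL library stock went into each well; scaled to the means of positive and negative controls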
HCMV NEC inh – inhibitors of HCMV UL50-UL53 interaction, biochemical, HTRF. HCMV UL50-UL53 nuclear egress complex (human cytomegalovirus). normalized percent inhibition. inhibition, % (concentration not given with the values). 0.15% of 190,000 active;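 active means both replicates at 50% or more, plus weaker picks with an unusually low signal ratio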;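 further: stock transfer was 100 nL into about 20 µL; 0% = negative control wells and 100% = wells with untagged competitor protein; inactives centre near -12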
Sa growth 42C second temp – also measured in Sa growth 42C; calls as there; relative growth, %; measured here: growth at 30 °C;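 optical density after 20 h as mean of two plates; 100% = untreated growth and lower means inhibition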
Numbers without * were called inactive; · = no result given; & = joins results of further samples.

SMILES	GIV Gai3 FP	Sa growth 42C	Sa growth 42C second temp	HCMV NEC inh
CCOC(=O)CCCn1nc(C)c2c(C)n(-c3ccc(C)cc3)nc2c1=O	109	108	84	-4
CC1CCCN(S(=O)(=O)c2cc(C(=O)NCc3ccccc3Cl)n(C)c2)C1 (stereo not drawn)	100	92	81	·
CN(C)c1ncc(C(=O)O)cc1NS(=O)(=O)c1cccc(F)c1	89	·	·	-5
Cc1cc(N2CCC(C)CC2)nc2ccc(NC(=O)CCC(=O)NCCC(C)C)cc12	108	·	·	-3
O=C1c2ccccc2C(=O)N1CCSc1nc2cc(Cl)ccc2c(=O)n1Cc1ccco1	·	94	96	5
COC(=O)C1=C(NC(=O)COc2ccc(Cl)cc2)CCS1	105	102	84	-19
CNS(=O)(=O)Cc1ccccc1Cl	102	116	94	-13
CN(Cc1ccccc1)S(=O)(=O)c1ccc(F)c(C(=O)Nc2cc(Cl)cc(Cl)c2)c1	102	105	90	·
CCn1c(C(=O)NCCc2ccc(S(N)(=O)=O)cc2)cc2sc(Cl)cc21	102	96	75	-14
COc1cc(C2CC(=O)Nc3c2c(=O)n(C)c2ncnn32)cc(OC)c1OC (stereo not drawn)	107	105	99	8
CCOC(=O)c1ccc(N(C(C)=O)c2nc(-c3cc4cccc(OCC)c4oc3=O)cs2)cc1	105	100	88	·
COc1ccc(CCNC(=O)CCn2c(=O)oc3ccccc32)cc1OC	100	89	85	·
Cc1cccc(C)c1NC(=O)CS(=O)CC(=O)NC1CCCc2ccccc21 (stereo not drawn)	101	115	86	-16
O=C(Nc1ccccc1)c1ccc2snnc2c1	106	112	85	-2
O=C(O)/C=C/c1c(Cl)nc2sccn12	·	88	102	-39
C(=N\n1cnnc1)/c1ccc2ncccc2c1	·	125	85	-82
O=C(OCc1cc(=O)oc2cc(O)ccc12)c1nc(Cl)ccc1Cl	·	74	88	-31
CCC(=O)Nc1nc2ccc(NC(=O)CCn3c(C)nc4ccccc43)cc2s1	104	·	·	6
O=C(O)Cn1cnc(-c2ccc(Br)cc2)c1	100	99	90	·
O=C(CN1CCN(Cc2ccccc2)CC1)Nc1ccccc1	103	99	93	-8
C=CCN1C(=O)/C(=C/c2ccc3c(c2)n(C)c(=O)n3C)C(=O)NC1=S	103	88	100	·
COc1ccc(NC(=O)N2CC=C(c3c[nH]c4ccccc34)CC2)cc1	109	96	73	-40
NC(Sc1nc(=O)n(C2CCCC2)c2c1CCC2)c1cccc2ccccc12 (stereo not drawn)	108	·	·	-27
O=C(Cn1c2c(c(-c3ccccc3)cc1=O)CCCC2)NCc1ccc(Cl)cc1	100	91	88	·
Cc1ccc(C)c(N2CCN(c3nc4ccccc4c4nc(CCn5nc(C)cc5C)nn34)CC2)c1	104	87	92	-19
CC(C)(C)c1ccc(OCCn2cccc2/C=C2/C(=N)N3C=CSC3=NC2=O)cc1	105	89	82	-11
Cc1c(NC(=O)c2cc3ccccc3o2)cccc1-c1nc2ccccc2o1	110	94	90	18
CCOC(=O)c1c(NC(=O)Cn2nnc3sc4c(c3c2=O)CCC(C)C4)sc2c1CCCC2 (stereo not drawn)	99	88	105	·
CCc1ccc(NC(=O)c2sc3nc(C)c(C(=O)Nc4ccc(C)cc4C)c(-c4ccco4)c3c2N)cc1	108	98	93	14
COc1ccc(C(F)(F)F)cc1NC(=O)c1ccc(Br)o1	107	96	102	23
CC1(C)C(c2nc(-c3ccc(Br)cc3)no2)C1(C)C	·	103	86	-14
CCOc1ccc(C2C3=C(CC(c4ccc(Cl)cc4)CC3=O)Nc3onc(C)c32)cc1 (stereo not drawn)	105	·	·	-1
Cn1c(CSC2=NCCN2)nc2ccccc21	103	88	80	·
O=C(NC1=NCCS1)NC12CC3CC(CC(C3)C1)C2	99	88	91	-11
Cc1c(CNC(C)CCc2ccccc2)c(C(=O)O)c(C)n1Cc1ccc(F)cc1Cl (stereo not drawn)	108	102	81	-16
COC(=O)CN1C(C)=Nc2ccc(C)cc2C1c1ccccc1 (stereo not drawn)	106	94	88	·
O=C(N/N=C/c1ccc(Br)cc1)c1ccc(-n2cnnn2)cc1	·	84	90	-12
O=C(Nc1ccc2nc(SCC(=O)N3CCCC3)sc2c1)c1ccccc1	104	104	90	-17
Cc1ccc(C2c3c(n[nH]c3C)C(=O)N2c2ccc(C)cc2)cc1 (stereo not drawn)	103	116	93	·
COc1ccc(C)cc1NC(=O)C1CCN(S(=O)(=O)c2cc(Br)cc3c2N(C(C)=O)CC3)CC1	102	94	82	-6
CCOc1c(C)cnc2c1c(=O)n(CC(=O)N1CCC(C)CC1)c(=O)n2C	103	·	·	18
CS(=O)(=O)NC(CC(=O)O)c1ccccc1Cl (stereo not drawn)	·	64	87	-29
Cc1cccc(C(=O)Nc2nc3cc4sc(NC(=O)c5cccc(C)c5)nc4cc3s2)c1	105	106	84	·
Cn1c(SCC(=O)c2ccc(F)cc2)nnc1-c1ccccc1Br	102	80	79	-5
O=c1/c(=C/c2ccccc2OCc2cccc3ccccc23)sc2nc3ccccc3n12	104	·	·	-19
O=C(/C=C/c1cccs1)NCc1ccccc1	·	111	91	-40
CCCN1CCN(CC(=O)c2ccc3cc[nH]c3c2)CC1	104	94	88	-11
Cc1ccc(NC(=O)c2c(N3CCCC3=O)c3cc(C)ccc3n2C)c(C)c1	102	110	118	·
CCCC1=Nc2cc(C(=O)NCCc3ccc(OCC)cc3)ccc2Sc2ccccc21	105	115	91	-7
CCOc1ccc(CC(=O)Nc2ccc3nc(N4CCCCC4)cc(C)c3c2)cc1OCC	98	85	93	·
The list goes on:
SMILES	GIV Gai3 FP	Sa growth 42C	Sa growth 42C second temp	HCMV NEC inh
CN(C)S(=O)(=O)c1ccc(NC(=O)c2cnc(Cl)c(Cl)c2)cc1	·	94	98	0
CC(C(=O)Nc1cccc(CCc2nc3ccccc3n2C)c1)N1C(=O)COc2ccccc21 (stereo not drawn)	108	·	·	-25
O=c1[nH]c(SCc2nnc(Nc3ccccc3)s2)nc2sc3c(c12)CCC3	105	115	78	·
O=C(O)c1c(-c2ccccc2)c2oc3ccccc3c2[nH]c1=O	103	99	84	-38
CN(C)c1ccc(C(O)c2nc3ccccc3n2C)cc1 (stereo not drawn)	98	73	91	-6
COc1cn(CC(=O)Nc2cccc(C)c2)c(CN2CCCCC2)cc1=O	101	115	88	·
COc1ccc(-c2cn3nc(N4CCC(C(=O)Nc5cccc(Cl)c5)CC4)sc3n2)cc1	102	135	79	·
CCOc1ccccc1-c1nn2c(-c3cccnc3)nnc2s1	103	·	·	14
COc1cccc(OCC(=O)NC2CC(=O)N(c3ccc4c(c3)OCCO4)C2)c1 (stereo not drawn)	103&105	97	88	·
COc1ccc(Cl)cc1NC(=O)CCC(=O)N1CCOc2ccccc21	99	116	85	-4
O=C(NC1CCCCC1)N1CCC(c2nc(-c3ccccc3Cl)no2)CC1	106	·	·	-37
CCC(C)c1ccc(NC(=O)CSc2ccccn2)cc1 (stereo not drawn)	101	83	79	-22
CC(=O)O/N=C1/CC(C)(C)Cc2onc(C)c21	98	96	81	-39
O=S(=O)(NCC1CCCO1)c1ccc(N2CCOCC2)nc1 (stereo not drawn)	104	96	93	-1
O=C(/C=C/c1ccco1)OC1CCCCC1=O (stereo not drawn)	·	95	83	-63
Cc1c(C#N)c(N)c(C(=O)c2ccc(Br)cc2)n1-c1ccc(Br)cc1	95	95	91	-26
Cc1c(C(=O)NCC2CCCO2)oc2ccc(S(=O)(=O)N3CC(C)CC(C)C3)cc12 (stereo not drawn)	103	94	94	4
CCC(=O)N1CCc2cc(Br)cc(S(=O)(=O)CCC(=O)NCc3ccccc3OC)c21	100	96	87	4
O=C(/C=C/c1ccc2c(c1)OCO2)Nc1ccc2nc3n(c(=O)c2c1)CCCCC3	106	111	86	-8
OC1CSCc2nc3ccccc3n2C1 (stereo not drawn)	100	101	84	-15

Exported bar-delimited: entries from further up.
smiles | GIV Gai3 FP | Sa growth 42C | Sa growth 42C second temp | HCMV NEC inh
CCOc1ccc(CC(=O)Nc2ccc3nc(N4CCCCC4)cc(C)c3c2)cc1OCC | 98 | 85 | 93 | ·
CN(C)S(=O)(=O)c1ccc(NC(=O)c2cnc(Cl)c(Cl)c2)cc1 | · | 94 | 98 | 0
CC(C(=O)Nc1cccc(CCc2nc3ccccc3n2C)c1)N1C(=O)COc2ccccc21 (stereo not drawn) | 108 | · | · | -25
O=c1[nH]c(SCc2nnc(Nc3ccccc3)s2)nc2sc3c(c12)CCC3 | 105 | 115 | 78 | ·
O=C(O)c1c(-c2ccccc2)c2oc3ccccc3c2[nH]c1=O | 103 | 99 | 84 | -38
CN(C)c1ccc(C(O)c2nc3ccccc3n2C)cc1 (stereo not drawn) | 98 | 73 | 91 | -6
COc1cn(CC(=O)Nc2cccc(C)c2)c(CN2CCCCC2)cc1=O | 101 | 115 | 88 | ·
COc1ccc(-c2cn3nc(N4CCC(C(=O)Nc5cccc(Cl)c5)CC4)sc3n2)cc1 | 102 | 135 | 79 | ·
CCOc1ccccc1-c1nn2c(-c3cccnc3)nnc2s1 | 103 | · | · | 14
COc1cccc(OCC(=O)NC2CC(=O)N(c3ccc4c(c3)OCCO4)C2)c1 (stereo not drawn) | 103&105 | 97 | 88 | ·
COc1ccc(Cl)cc1NC(=O)CCC(=O)N1CCOc2ccccc21 | 99 | 116 | 85 | -4
O=C(NC1CCCCC1)N1CCC(c2nc(-c3ccccc3Cl)no2)CC1 | 106 | · | · | -37
CCC(C)c1ccc(NC(=O)CSc2ccccn2)cc1 (stereo not drawn) | 101 | 83 | 79 | -22
CC(=O)O/N=C1/CC(C)(C)Cc2onc(C)c21 | 98 | 96 | 81 | -39
O=S(=O)(NCC1CCCO1)c1ccc(N2CCOCC2)nc1 (stereo not drawn) | 104 | 96 | 93 | -1
O=C(/C=C/c1ccco1)OC1CCCCC1=O (stereo not drawn) | · | 95 | 83 | -63
Cc1c(C#N)c(N)c(C(=O)c2ccc(Br)cc2)n1-c1ccc(Br)cc1 | 95 | 95 | 91 | -26
Cc1c(C(=O)NCC2CCCO2)oc2ccc(S(=O)(=O)N3CC(C)CC(C)C3)cc12 (stereo not drawn) | 103 | 94 | 94 | 4

Next part.
SMILES	GIV Gai3 FP	Sa growth 42C	Sa growth 42C second temp	HCMV NEC inh
COc1ccc(N2CCN(CCCNC(=O)c3cc(C(F)(F)F)n(C)n3)CC2)cc1	100	·	·	-11
Brc1cccc(-c2nnc3sc(CN4CCc5ccccc54)cn23)c1	109	104	66	·
COC(=O)CNC(=O)N1CC2CCCN2c2ccccc21 (stereo not drawn)	97	·	·	0
Cc1ccc(Sc2ncccc2-c2nnc(C3CC3)o2)cc1	108	93	95	2
COc1ccc(NC(=O)C2CCN(S(=O)(=O)c3c(C)noc3/C=C/c3cccs3)CC2)cc1	113	103	90	-39
O=C1NCCC2C1N=C(N1CCCCC1)N2C1OC(CO)C(O)C1O (stereo not drawn)	·	88	89	4
O=c1[nH]nc(SCc2csc(-c3ccccc3)n2)c(=O)[nH]1	·	101	89	-68
CCOc1nc2c(c(C)nn2-c2ccc(C)cc2)c(C)c1CCC(=O)NC1CCCCC1	101	·	·	-28
CCOC(=O)CN1C(C(=O)c2ccccc2)=C(OC(=O)c2ccccc2)c2ccccc2S1(=O)=O	98	90	85	1
COc1cccc2c1N(C(=O)c1sc3ccccc3c1Cl)C(C)(C)c1ssc(=S)c1-2	99	·	·	-18
C=CCc1ccccc1OCC(O)CN1CCN(CCN2C(=O)c3cccc4cccc(c34)C2=O)CC1 (stereo not drawn)	104	·	·	-98
CCC(CC)c1nn(CC(=O)c2cc(C)n(CCOC)c2C)c(=N)s1	·	104	100	5
COCCn1c(SCc2nc(N)nc(Nc3ccccc3C)n2)nc2ccccc21	·	94	91	5
O=C(OCC(=O)C12CC3CC(CC(C3)C1)C2)c1cccnc1	·	71	85	-42
CN(C)C(=O)CN1CCN(c2ccc(NC(=O)C3CC3)c(C(=O)O)c2)CC1	102	·	·	-18
O=C(Nc1ccccc1N1CCOCC1)c1cc2sc3ccccc3c2s1	104	107	98	-17
CCc1ccc(CNC(=O)C2COc3ccc(OC)cc3C2)cc1 (stereo not drawn)	103	97	93	·
OC(c1ccccc1)(c1ccccc1)C1CCN(c2nnnn2-c2ccccc2)CC1	·	102	88	0
O=C(O)c1ccccc1-c1ccccc1C(=O)O	110	120	104	8
COc1ccccc1CNC(=O)CCc1c(C)nn(-c2ccc(N3CCOCC3)nn2)c1C	102	90	91	·
COc1ccccc1N1CCN(c2csc3ccc(Cl)cc3c2=O)CC1	110	95	97	·
CCOc1ccccc1NC(=O)CCc1nnc2ccc(N3CCN(C)CC3)nn12	102	97	96	·
CCn1cc(C(=O)N2CC(C)CC(C)C2)c(=O)c2cc(S(=O)(=O)N3CCC(C)CC3)ccc21 (stereo not drawn)	104	111	95	1
CC(C)Oc1ccc(C(=O)NCc2cccnc2)cc1	104	127	96	-14

Not a hit list; 0.8% or so of the library scored in one or more.
